Compound activity (PubChem)
eIF4H FP inh = inhibitors of RNA binding by human eIF4H; inhibition, % at 35 µM; eIF4H fluorescence polarization binding assay; Q15056; 290,000 compounds, 0.94% hits; AID 2012;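 active = 50% or more with normal probe brightness, or confirmed in later tests; inconclusive = above 50% with abnormal brightness, or retests that disagree; inactive = below 50% or failed in later tests; about a fifth of its hits are not listed in these tables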;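 note: calls also rest on retests at 20 µM and on dose response follow-up; 0% = protein and probe with vehicle and 100% = probe without protein; strong numbers were not always called active; many hits fall short of the cut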
PABP FP inh = blocks human PABP binding to poly(A) RNA; 290,000 compounds, 1% hits; inhibition, % at 35 µM; fluorescence polarization;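 active = 50% or more with normal probe brightness, or confirmed in later tests; inconclusive = above 50% with abnormal brightness, or retests that disagree; inactive = below 50% or failed in later tests; about a fifth of its hits are not listed in these tables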;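 note: calls also rest on retests at 20 µM and on dose response follow-up; controls were probe without protein and protein plus probe with vehicle; some compounds called inactive have numbers as strong as hits; many hits fall short of the cut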
Target sequence (P11940 whole entry, looked up): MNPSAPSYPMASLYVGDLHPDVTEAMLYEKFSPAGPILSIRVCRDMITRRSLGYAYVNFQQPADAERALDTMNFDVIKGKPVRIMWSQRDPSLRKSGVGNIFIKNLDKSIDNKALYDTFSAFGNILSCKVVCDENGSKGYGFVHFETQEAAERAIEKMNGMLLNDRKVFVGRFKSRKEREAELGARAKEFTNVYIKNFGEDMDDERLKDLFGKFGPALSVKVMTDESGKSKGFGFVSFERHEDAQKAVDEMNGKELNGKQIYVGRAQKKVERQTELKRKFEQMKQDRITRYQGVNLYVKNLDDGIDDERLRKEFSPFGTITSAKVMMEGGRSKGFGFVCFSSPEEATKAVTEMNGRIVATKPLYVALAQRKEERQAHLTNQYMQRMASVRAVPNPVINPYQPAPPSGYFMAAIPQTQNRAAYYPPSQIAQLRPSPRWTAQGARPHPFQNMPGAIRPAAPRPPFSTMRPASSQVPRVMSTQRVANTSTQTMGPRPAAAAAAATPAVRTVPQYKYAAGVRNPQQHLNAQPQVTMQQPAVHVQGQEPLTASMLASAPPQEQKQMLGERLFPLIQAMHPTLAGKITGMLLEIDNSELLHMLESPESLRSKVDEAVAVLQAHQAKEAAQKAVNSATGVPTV
HIV Env fusion = blocks HIV Env-driven cell-cell fusion; HeLa-JRFL Env/CEM21 cell fusion, luciferase; inhibition, % at 12.3 µM; 360,000 compounds, 1.1% hits; AID 651610;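 active = mean replicate inhibition score of at least 50 and every replicate individually at or above 50; inconclusive = only one of the two criteria met; inactive = mean below 50 and not all replicates reaching 50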;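 note: 0% = plate neutral controls and 100% = maraviroc near 300 nM; one replicate is shown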
Yeast UUG start = alters start codon recognition fidelity in yeast; activity score, % at 18.7 µM; 350,000 compounds, 0.13% hits; S. cerevisiae UUG-firefly luciferase reporter, luminescence/redox ratio;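 active = replicate mean at a twofold rise or more, about +100% in these data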;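 note: firefly luciferase made from a UUG start codon reports start codon fidelity; reporter light over untreated wells divided by growth signal over untreated wells; some hits fall short of that in this replicate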
CSC inhib = blocks cancer stem cells. cancer stem cell-like cells viability, luminescence. AID 2717. inhibition, % at 7.5 µM. 300,000 compounds, 1.1% hits;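 active = mean at 75% or more and at least half the replicates too; inconclusive = mean and replicates disagree; tested in HMLE shEcad cells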;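 note: 0% = median of negative and 100% = median of positive control wells; the first replicate is given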
Rce1 inh = yeast Ras-converting enzyme inhibition; Q03530; yeast membranes, quenched prenylated peptide cleavage fluorescence; calls only; 290,000 compounds, 0.27% hits;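 active = fall in fluorescence gain of 50% or more versus controls, with final raw signal at or below 3038400; inconclusive = same 50% fall but final raw signal above 3038400; inactive = fall in fluorescence gain under 50%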;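 note: plate controls were neutral control wells for no effect and wells lacking membranes for full effect; tested at 10 µM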
Target sequence (Q03530 whole entry, looked up): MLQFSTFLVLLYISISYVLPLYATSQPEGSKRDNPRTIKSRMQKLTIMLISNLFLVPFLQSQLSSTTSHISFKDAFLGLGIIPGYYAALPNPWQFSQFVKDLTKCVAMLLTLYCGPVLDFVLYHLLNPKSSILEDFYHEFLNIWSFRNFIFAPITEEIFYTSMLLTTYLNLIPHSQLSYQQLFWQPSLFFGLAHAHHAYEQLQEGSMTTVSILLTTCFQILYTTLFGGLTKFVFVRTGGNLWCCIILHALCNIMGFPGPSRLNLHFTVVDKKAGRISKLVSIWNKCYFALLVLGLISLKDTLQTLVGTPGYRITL
MT1-MMP act inh = blocks activation of human MT1-MMP | HT1080 RFP-PRO-GFP cells, GFP/RFP ratio fluorescence, overnight; percent of plate control window, DMSO zero | GFP/RFP ratio change, % at 20 µM | 360,000 compounds, 0.061% hits | AID 651647;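 active = GFP/RFP ratio change of at least 30% with cell ATP level not reduced by more than half and red fluorescence within 50% of control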; note: strong numbers were not always called active
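Compound: 20 µM single dose, 1% DMSO / System: HT1080 RFP-PRO-GFP cells / Controls: DMSO and RFP-L50D-GFP cell wells / Read-out basis: GFP/RFP fluorescence ratio / Schedule: overnight compound exposure at 37 °C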
MT1-MMP act inh RFP = also measured in MT1-MMP act inh; calls as there; RFP signal change, %; measured here: RFP expression control read;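 0 = vehicle wells; hits needed this value within 50% of zero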
* = called active by the depositor; i = inactive; ? = inconclusive; . = no result given; + = active, no number.

SMILES	eIF4H FP inh	PABP FP inh	HIV Env fusion	Yeast UUG start	CSC inhib	Rce1 inh	MT1-MMP act inh	MT1-MMP act inh RFP
CC(=O)c1c(C)[nH]c(C(=O)OCC(=O)N2CCN(S(=O)(=O)c3ccc(C)cc3)CC2)c1C	.	.	18	-8	.	.	-1	-7
CCc1ccccc1NC(=O)CCS(=O)(=O)c1ccc(C)cc1	-13	-5	-4	-1	-13	i	-2	0
CCOC(=O)c1c(NC(=O)CCN2C(=O)c3ccccc3C2=O)sc(C(=O)OC(C)C)c1C	2	2	7	.	-1	i	-7	-3
OCC1CCCCN1CCNCc1cn[nH]c1-c1cccc2ccccc12 (stereo unspecified)	4	11	-3	-18	-7	i	0	0
O=c1[nH][nH]c(=O)c2c(NS(=O)(=O)c3ccccc3)cccc12	12	11	-17	.	9	i	-2	1
Cc1cc(C)c(S(=O)(=O)O)c(C)n1	-14	16	-11	-23	1	i	0	4
COc1ccc(CCNC(=O)COC(=O)CCC(=O)c2ccc(F)cc2)cc1OC	-9	-2	0	.	-17	.	-1	1
O=C(CCc1nnc(CCCCc2ccccc2)o1)NCc1cc(F)ccc1F	1	-4	-469	.	-6	.	-3	1
CC1Cc2ccccc2N1Cc1nc2cc(Cl)ccc2c(=O)[nH]1 (stereo unspecified)	-2	19	.	-13	12	i	-5	1
CC(=O)Nc1cc([N+](=O)[O-])ccc1N1CCOCC1	-6	2	6	.	-4	.	1	2
CC1CC(C)CN(CCCn2c(=S)[nH]c3ccccc3c2=O)C1 (stereo unspecified)	7	1	.	-26	-12	i	-3	2
COc1cc(-c2nnc(NC(=O)CS(=O)(=O)c3ccc(F)cc3)o2)cc(OC)c1OC	.	.	-13	-26	-12	i	2	2
CCOC(=O)c1cc2cc(C)ccc2[nH]1	-12	-10	-55	-13	5	i	3	-3
COc1cc(C(=S)N2CCCC2)cc(OC)c1O	-6	-5	-72	.	-2	i	3	9
CCc1nnc(NC(=O)c2ccncc2)s1	-6	2	.	-15	-2	i	-2	2
COc1ccc(OC)c(NC(=O)CCn2c(=S)[nH]c3ccccc3c2=O)c1	-9	-5	4	-10	-4	i	-2	-1
CN(C)c1ccc(Nc2ncnc3ccc(Br)cc23)cc1	-4	-2	48	0	10	i	-13	-7
Cc1ccccc1OCc1ccc(C(=O)N2CCOCC2)o1	-3	-5	-4	-11	-12	i	0	3
COc1ccc(Sc2nc3ccccc3n3c(C(F)(F)F)nnc23)cc1	-6	-4	26	-23	-11	i	2	4
O=[N+]([O-])c1cccc(N/N=C/c2cc([N+](=O)[O-])ccc2O)c1	0	1	-40	.	1	i	9	-7

Complete entries from above. Order of screens: eIF4H FP inh | PABP FP inh | HIV Env fusion | Yeast UUG start | CSC inhib | Rce1 inh | MT1-MMP act inh | MT1-MMP act inh RFP
CC1Cc2ccccc2N1Cc1nc2cc(Cl)ccc2c(=O)[nH]1 (stereo unspecified) is listed with -2 | 19 | . | -13 | 12 | i | -5 | 1
CC1CC(C)CN(CCCn2c(=S)[nH]c3ccccc3c2=O)C1 (stereo unspecified) is listed with 7 | 1 | . | -26 | -12 | i | -3 | 2
COc1cc(C(=S)N2CCCC2)cc(OC)c1O is listed with -6 | -5 | -72 | . | -2 | i | 3 | 9

The results go on.
SMILES	eIF4H FP inh	PABP FP inh	HIV Env fusion	Yeast UUG start	CSC inhib	Rce1 inh	MT1-MMP act inh	MT1-MMP act inh RFP
CN(C1CCS(=O)(=O)C1)S(=O)(=O)c1ccc(N2CCCC2=O)cc1 (stereo unspecified)	-11	-3	.	11	0	i	6	3
CC(OC(=O)c1ccc(NC(=O)CC#N)cc1)C(=O)Nc1ccc2c(c1)OCCO2 (stereo unspecified)	.	.	.	.	-7	i	-4	3
Cc1ccc2nc(Cl)c(/C=N/NC(=O)CN3CCOCC3)cc2c1	.	.	-6	1	-11	i	7	3
COCCn1c(=NC(=O)CSC(C)=O)sc2cc(OC)ccc21	-6	4	-38	-22	-14	i	2	4
O=C(NC1CCCCCCC1)c1ccco1	-1	-9	-47	6	4	i	-1	4
O=C(CN1C2=NCCN2c2ccccc21)N1CCOCC1	-1	1	.	.	-22	i	.	.
COc1ccc(N2CCN(C(=O)c3ccc(S(=O)(=O)NCc4ccco4)cc3)CC2)cc1	.	.	2	-9	.	.	3	1
Cc1csc(NC(=O)CCc2c(C)nc3cc(-c4cccc(F)c4)nn3c2C)n1	-1	2	-1	-7	21	i	2	2
CN(C)c1cc(O)c(C(=S)Nc2ccccc2)c(N(C)C)c1	?	?	7	-2	37	+	-21	4
CC(CN(C)Cc1ccccc1)OC(=O)c1ccc2c(c1)OCCO2 (stereo unspecified)	-10	3	18	-4	-1	i	0	0
O=C(Nc1nc(-c2ccncc2)cs1)c1ccc(S(=O)(=O)N2CCOCC2)cc1	-4	0	-16	.	-2	i	10	-4
Cc1cc(C)c2c(n1)SCC(=O)N2CC(=O)Nc1cc(F)ccc1F	-13	-10	-37	-16	-7	i	3	4
CNc1ccc(-c2ccccc2CO)cn1	.	.	-2	-16	.	.	1	2
CCN(C(=S)NC(=O)Cc1ccc(OC)cc1)c1ccccc1	.	.	9	-24	-7	i	-1	-1
CC(Oc1ccc(F)cc1F)C(=O)NNC(=S)NCC1CCCO1 (stereo unspecified)	-2	14	-2	3	-9	i	-2	-2
Cc1ccc(/C=N/n2c(-c3ccccc3)n[nH]c2=S)cc1	-4	1	0	-16	1	i	1	-3
CCn1cnc2c1c(=O)n(CC(=O)OC(C)C(N)=O)c(=O)n2Cc1ccccc1 (stereo unspecified)	-16	7	0	-10	-16	i	-3	-1
CC1CCN(Cc2c(C(=O)N/N=C/c3ccc(C(C)(C)C)cc3)nnn2-c2nonc2N)CC1	-3	-8	17	8	29	i	-2	-6
O=C(N1CCc2cc(S(=O)(=O)NC[C@H]3O[C@@H](n4ccc(=O)[nH]c4=O)[C@H](O)[C@@H]3O)ccc2C1)C(F)(F)F	.	.	-47	-2	.	.	3	3
O=C(COC(=O)C1(c2ccc(F)cc2)CCCC1)N1CCNC1=O	.	.	3	-8	.	.	2	-1
CCOC(=O)C1=C(C)Nc2nnnn2C1c1ccccc1Cl (stereo unspecified)	4	2	.	-16	-10	.	6	-1
Cn1ncc2c(Nc3cccc([N+](=O)[O-])c3)ncnc21	-1	2	0	-42	5	i	0	0
O=C(NN1C(=O)C2C(c3ccccc3)C=CC(c3ccccc3)C2C1=O)c1cccc(Br)c1 (stereo unspecified)	0	9	?	.	8	i	3	3
O=c1[nH]cnc2sc3c(c12)CCC3	-11	3	16	.	3	i	-7	4
COc1cc2c(CCNC(C)=O)c[nH]c2cc1Cl	.	.	7	-12	7	.	3	4
COc1ccc(NC(=O)COC(=O)C(CC(C)C)N2C(=O)C3CC=CCC3C2=O)cc1Cl (stereo unspecified)	-9	8	19	-12	.	i	-1	4
CC(C)CNC(=O)c1ccc(Cl)c(NC(=O)COc2ccccc2)c1	-12	-9	.	.	-9	i	.	.
O=C(O)c1ccc(-c2cccc(-c3nn4c(=O)cc(N5CCNCC5)nc4s3)c2)cc1	.	.	-1	-16	.	.	6	6
CCCCCCCNC(=O)C1(CC2CC(c3cccc(Br)c3)=NO2)CCN(C(=O)c2cc(OCC)c(OCC)c(OCC)c2)CC1 (stereo unspecified)	.	.	28	6	8	i	6	-9
CCOC(=O)N1CCN(c2cc(=O)n(-c3ccccc3C)c(=O)[nH]2)CC1	0	-13	-3	-5	-7	i	-3	4
O=C(CCl)N(c1ccccc1)c1ccccc1	0	6	36	.	.	i	-3	-4
CCSc1ccc([C@@H]2[C@@H]3C(=O)N(C)C(=O)[C@@H]3[C@]3(C(=O)OC)CCCCN23)cc1OC	.	.	-32	9	.	.	-1	0
Oc1c(I)cc(I)c2cccnc12	8	0	37	-29	.	i	-9	-25
O=C(NC(=S)Nc1ccc2oc(=O)ccc2c1)c1ccc(-c2cccc(Cl)c2Cl)o1	5	1	.	.	?	i	.	.
Cc1cccc(CC(C)NC(=O)c2cc(COc3ccc(C)c(C)c3)on2)n1 (stereo unspecified)	-1	0	-8	-2	-7	i	-1	-1
O=C(Cn1nnc(-c2ccccc2Cl)n1)N/N=C/c1ccc(-c2cccc(Cl)c2)o1	-2	9	.	.	8	i	1	-2
CCn1nc(C)c(C(=O)Nc2cc(Oc3ccc(Cl)cc3)cc([N+](=O)[O-])c2)c1C	-10	-9	-20	-14	.	i	1	-6
Fc1cc(F)c(NC(=S)N2CCOCC2)c(F)c1	1	2	-2	-14	-4	i	-2	1
COc1ccccc1CCNS(=O)(=O)c1ccc(C(=O)O)n1C	6	7	-1	.	17	i	3	2
COc1cc(CNCc2cc(OC)c(OC)c(OC)c2)cc(OC)c1	-2	0	7	7	-5	i	5	-3
CCCCN(C(=O)c1ccc([N+](=O)[O-])o1)c1c(N)n(CCCC)c(=O)[nH]c1=O	.	.	19	.	-7	i	-44	8
O=C(NC(=O)N1CCOCC1)c1ccccc1	-9	3	.	-8	-1	i	3	4
C/C(=N\NC(=S)NC1CCCCC1)c1ccc(C#N)cc1	-7	-16	-2	-14	-4	i	2	0
Cc1ccc(O)c(NC(=O)c2noc(C(C)C)c2[N+](=O)[O-])c1	8	2	1	.	.	i	8	7
Cc1ccc(N)cc1-n1c(C)ccc1C	30	22	-93	-10	-14	i	-24	7
CCOc1ccc(/C(CCC(=O)O)=N/NC(=S)NC(C)C)cc1	0	1	2	.	-10	i	-2	-1
COc1ccc(Cc2c(N)nc(C)nc2N)cc1	-17	-15	11	.	-8	i	-2	3
O=C(Nc1ccc(N2CCN(C(=O)c3ccco3)CC2)cc1)c1ccccc1Br	-2	2	1	0	0	i	0	2
CN1/C(=C\C=C2/SC(=S)N(CC(=O)O)C2=O)C(C)(C)c2ccccc21	?	?	13	.	13	.	-18	60
O=C1CC(c2cccc(Br)c2)C2=C(COC2=O)N1 (stereo unspecified)	-6	2	6	.	-4	i	-2	-3
O=C(Cn1c(CO)nc2ccccc21)Nc1ccccc1Cl	7	12	15	.	-16	i	4	1
COc1cc(C2c3[nH]c4ccccc4c3CCN2Cc2cn(C)nc2C)ccc1F (stereo unspecified)	-7	4	-8	.	9	i	-7	-3
N#C/C(=C/c1ccccc1[N+](=O)[O-])c1nnc2n1CCCCC2	-3	-1	8	.	-10	i	3	5
COc1ccccc1Nc1nnc(SCC(=O)NC(=O)Nc2ccc3c(c2)OCCO3)s1	-2	6	-27	.	-8	i	9	-1
COc1ccc(NC(=O)CSc2nnc(-c3cnccn3)n2C)cc1OC	-15	-1	8	-18	0	i	-2	-1
COc1ccc(S(=O)(=O)N2CCOCC2)cc1NC(=O)CCCOc1ccccc1	.	.	11	1	-7	.	2	4
Cc1ccc(OCC(=O)N2N=C(C(F)(F)F)CC2(O)C(C)(C)C)cc1C (stereo unspecified)	-8	7	-28	14	15	i	6	-1
O=C(CCn1nc(-c2ccc(Cl)cc2)c2ccccc2c1=O)NN1CCOCC1	-4	-9	6	-6	-1	i	1	-2
Clc1ccccc1C1CC(c2ccccc2)Nc2ncnn21 (stereo unspecified)	2	-2	-30	-17	-6	i	4	4
Cc1ccc2c(c1)CCCN2C(=O)Nc1ccc2c(c1)OCO2	1	19	-30	-50	-7	i	.	.
New compounds follow
SMILES	eIF4H FP inh	PABP FP inh	HIV Env fusion	Yeast UUG start	CSC inhib	Rce1 inh	MT1-MMP act inh	MT1-MMP act inh RFP
CCOc1ccc2nc(/N=C/c3nc(-c4ccc(Br)cc4)oc3O)sc2c1	-7	8	.	.	4	i	-6	-1
COCCCn1c(SCc2cccc(OC)c2)nc2cc(OC)c(OC)cc2c1=N	-4	3	?	-16	37	i	9	-3
CCCc1cc(=O)[nH]c(SCC(=O)NCCN2C(=O)CSC2=O)n1	.	.	-16	-11	15	.	-3	1
O=C(CCN1C(=O)c2cccc([N+](=O)[O-])c2C1=O)NC1CCCCCC1	.	.	27	-14	-13	.	0	2
